Bioassay records from PubChem.
T cruzi inh: inhibitors of intracellular T. cruzi growth, primary screen, luminescence, NIH3T3 host cells. T. cruzi beta-gal in NIH3T3, 90 h. 300,000 tested, 1.4% active. inhibition, % (test concentration not listed);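 active = mean inhibition across valid replicates above about 55%, limit read from the data; inconclusive = mean below that limit but half or more replicates reach it; inactive = mean below it, under half of replicates reach it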;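 also: signal also drops with host cell toxicity which is not excluded here; 0% = plate median of DMSO wells and 100% = zero luminescence signal; higher percent means less beta-gal luminescence so fewer parasites; stock transfer was 50 nL into about 50 µL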
rRNA inh HTS: reduced GFP signal of wild-type E. coli, primary screen, bacterial rRNA inhibitor project, GFP/RFP fluorescence, OD600, single point. E. coli WT GFP vs humanized-ribosome RFP mutants, 24 h; active compounds read low; DMSO median 0, no signal -100. GFP signal change (wild-type ribosome), % (concentration not given with the values). 350,000 tested, 1.6% active;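 active = significant combined selectivity score with lowered wild-type GFP, culture density cut under 30%, mutant RFP and density less affected; inactive = any of these conditions unmet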; also: one replicate is shown; some compounds called inactive have numbers as strong as hits
RanGTP-Impb inh: inhibitors of RanGTP-importin-beta interaction, primary screen, biochemical, FRET, CFP-Ran, YFP-importin-beta, homogeneous; AID 2216, 2009; Ran GTPase (GTP-bound) - importin-beta complex; cell-free CFP-Ran/YFP-importin-beta FRET ratio; 300,000 tested, 1.1% active; inhibition, % (test concentration not listed);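 active = most replicates above 15%; inconclusive = exactly half above 15%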;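 also: 0% = DMSO wells and 100% = Ran loaded with GDP instead of GTP; wells of about 40 µL received 100 nL stock; the first replicate is given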
MLL AF4-AF9 inh: inhibitors of AF4 peptide binding to AF9, primary screen, biochemical, AlphaScreen, biotin-AF4 peptide, FLAG-AF9, single point; Protein AF-9 (Homo sapiens), P42568; inhibition, % at 10 µM; 350,000 tested, 0.47% active;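 active = every replicate reaching a set inhibition limit, whatever the replicate mean, cut at about 25% in these data; inconclusive = mean inhibition reaches that limit but some replicates miss it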;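 also: 0% = plate neutral control median and 100% = total signal loss; the record names both 10 and 1 µM as test concentration; the first replicate is given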
Target sequence (P42568 whole entry, looked up): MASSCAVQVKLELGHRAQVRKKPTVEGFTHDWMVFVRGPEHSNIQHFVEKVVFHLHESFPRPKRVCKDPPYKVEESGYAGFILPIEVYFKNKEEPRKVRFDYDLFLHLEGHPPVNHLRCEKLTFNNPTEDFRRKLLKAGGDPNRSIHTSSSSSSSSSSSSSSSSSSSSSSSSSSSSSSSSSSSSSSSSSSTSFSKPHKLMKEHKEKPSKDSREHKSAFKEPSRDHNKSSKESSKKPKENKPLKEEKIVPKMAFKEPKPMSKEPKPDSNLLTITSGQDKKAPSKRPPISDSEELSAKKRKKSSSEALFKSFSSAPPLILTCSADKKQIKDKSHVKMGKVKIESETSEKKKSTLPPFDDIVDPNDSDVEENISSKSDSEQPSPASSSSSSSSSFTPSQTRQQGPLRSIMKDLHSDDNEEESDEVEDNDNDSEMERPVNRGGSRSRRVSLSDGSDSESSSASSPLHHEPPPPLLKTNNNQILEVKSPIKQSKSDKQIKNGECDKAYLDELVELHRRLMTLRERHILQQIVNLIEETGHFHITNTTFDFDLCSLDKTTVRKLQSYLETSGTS
Calb FLC: C. albicans growth inhibition with fluconazole, primary screen, CaCi-2 strain, Alamar Blue fluorescence; C. albicans CaCi-2 (fluconazole-resistant clinical isolate) + fluconazole, 48 h; growth inhibition, % (no concentration beside the values); 300,000 tested, 0.57% active; AID 1979, 2009;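 active = most replicates above 75%; inconclusive = exactly half above 75%; inactive = most below 75%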;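 also: all wells also contain fluconazole at 8 µg/ml as a sub-toxic cotreatment; 0% = median of DMSO wells and 100% = median of geldanamycin control wells; wells of about 8 µL received 7.5 nL stock; the first replicate is given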
FGF22 binding: binders of human FGF22 protein, primary screen, FGF22 synaptogenesis inhibitor project, biophysical, thermal shift, single point. calls only at 9.99 µM. recombinant FGF22 thermal shift, SYPRO orange fluorescence; percent of sucrose octasulfate shift, DMSO zero. 340,000 tested, 1.5% active. Fibroblast growth factor 22 (Homo sapiens), Q9HCT0;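 active = melting point raised past a set limit in the mean and every replicate; inconclusive = no clear call; three in four hits are not shown here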
Target sequence (Q9HCT0 whole entry, looked up): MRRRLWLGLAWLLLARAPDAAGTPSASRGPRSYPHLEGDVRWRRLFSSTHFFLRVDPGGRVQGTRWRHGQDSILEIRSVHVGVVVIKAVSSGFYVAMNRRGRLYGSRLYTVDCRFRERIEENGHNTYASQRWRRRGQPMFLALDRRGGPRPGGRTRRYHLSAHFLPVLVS
ALR inh: inhibitors of human ALR sulfhydryl oxidase, primary screen, biochemical, H2O2 detection, HRP-luminol luminescence, single point | FAD-linked sulfhydryl oxidase ALR (Homo sapiens), P55789 | purified ALR, DTT oxidation | inhibition, % (no concentration beside the values) | 290,000 tested, 3.8% active;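 active = mean and each replicate at 75% or more; inconclusive = only one of the two met; inactive = neither met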;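 also: stock transfer was 7.5 nL into about 7.5 µL; 0% = neutral wells and 100% = wells with inactivated enzyme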
Target sequence (P55789 whole entry, looked up): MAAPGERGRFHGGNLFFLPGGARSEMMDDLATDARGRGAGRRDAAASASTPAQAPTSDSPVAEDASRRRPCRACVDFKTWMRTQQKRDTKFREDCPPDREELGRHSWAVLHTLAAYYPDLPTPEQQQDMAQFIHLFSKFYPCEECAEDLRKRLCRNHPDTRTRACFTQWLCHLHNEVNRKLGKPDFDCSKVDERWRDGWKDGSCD
Beta apoptosis: inhibitors of cytokine-induced beta cell apoptosis, primary screen, luminescence; INS-1E cytokine-induced death, ATP luminescence, 48 h; percent of positive-control rescue, neutral wells zero; protection from apoptosis, % (concentration not given with the values); 300,000 tested, 0.8% active; AID 435005, 2010;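 active = all replicates at 75% or more, or half of them and the mean; inconclusive = half reach 75% but not the mean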;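 also: 0% = cytokine-treated negative control wells and 100% = positive control rescue; higher means more ATP so stronger rescue from cytokine killing; wells of about 40 µL received 100 nL stock; the first replicate is given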
rRNA inh HTS OD600: also measured in rRNA inh HTS; calls as there; OD600 change, %; measured here: OD600 growth;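 optical density of the mix in the first replicate; 0 = DMSO median and -100 = no signal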
rRNA inh HTS RFP: also measured in rRNA inh HTS; calls as there; RFP signal change, %; measured here: RFP humanized mutant strains;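 first replicate; 0 = DMSO median and -100 = no signal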
The depositor's hits bear a star; i = inactive; ? = inconclusive; . = not tested or not shown; & = joins results of further samples. These rows are one share of the data; rates above refer to the full screens.

entry	mol	FGF22 binding	Calb FLC	RanGTP-Impb inh	rRNA inh HTS	T cruzi inh	rRNA inh HTS RFP	ALR inh	rRNA inh HTS OD600	Beta apoptosis	MLL AF4-AF9 inh
1	Cc1cc(C)cc(CSCC(=O)NN=C2CCCCCC2)c1	.	-6	0.7	.	2	.	7	.	-1	.
2	COc1ccc(C(=O)O/N=C(\N)Cc2ccc(Cl)c(Cl)c2)cc1OC	i	2	?	-54	39	-30	30	-80	7	-2.5
3	Cc1ccccc1C(OCC(O)CN1CCCCC1CCO)c1ccccc1 (centres undefined)	.	7	0.9	.	-15	.	-1	.	-9	.
4	CC(=O)Oc1cc2oc(=O)cc(C)c2cc1OC(C)=O	.	4	30*	.	-19	.	89*	.	-2	-4.3
5	Cc1ccc(CN2CCSc3ccc(C(=O)NCc4ccccn4)cc32)cc1	i	?	-0.9	-37	24	-5.3	98*	-49	4	5.2
6	C[C@]12CCC(=O)C=C1CC[C@@H]1[C@@H]2CC[C@@]2(C)[C@H]1CC[C@@]21CCC(=O)O1	i	-7	1.0	-13	14	-0.9	0	-20	2	-1.2
7	CCN(CC)S(=O)(=O)c1ccc2c(c1)nc(CCC(=O)O)n2CC	.	-20	6.6	19	-2	1.6	-13	12	1	-1.2
8	Cc1ccc(C)c(NC(=O)c2cc(-c3cccnc3)nc3ccccc23)c1	i	0	-3.2	24	13	2.6	0	11	7	-3.0
9	Cc1ccc(CNC(=O)C(=O)NCC2OCCCN2S(=O)(=O)c2cccs2)cc1 (centres undefined)	i	5	-3.0	6	-9	1.4	0	6	-6	-18
10	CC(=O)c1ccc(S(=O)(=O)NC2CC2)cc1	i	-7	4.0	5	-6	-1.7	-5	5	-11	-1.5
11	O=C(COc1ccccc1Cl)NNC(=O)c1ccc2nc[nH]c2c1	i	2	0.6	-5	-11	0.6	.	2	-6	-0.2
12	Cn1c(SCC(=O)NCCNC(=O)CSc2nnc(C(F)(F)F)n2C)nnc1C(F)(F)F	.	-5	4.4	19	-9	-1.8	-13	17	-2	.
13	CCN(CC)CCSc1nnc2c3cc(C)ccc3n(Cc3ccccc3)c2n1	i	14	-1.0	-17	58*	5.6	10	-10	11	5.9
14	COc1cc(/C=N/NS(=O)(=O)c2ccc(Br)cc2)ccc1O	i	1	0.1	-2	-3	0.7	99*	-9	-9	-6.5
15	COc1ccc(CCc2nc(C)ccc2O)cc1	.	28&0	-2.8&-2.0	.	5&-1	.	18&16	.	8&6	.
16	COc1ccc(C)cc1N(CC(=O)NC1CCCC1)C(=O)Cn1nnc(-c2ccc(C)o2)n1	i	-3	1.8	-2	2	2.9	.	4	.	-2.5
17	Oc1cccc(/C=N/Nc2ncnc3c2ncn3Cc2ccccc2)c1	.	2	5.0	.	-11	.	71	.	1	.
18	Cc1ccc(-c2cc(C(=O)O)n[nH]2)o1	.	-2	-1.6	.	-8	.	6	.	-8	.
19	CCC(=O)N1CCN(CCN=CC2=C(O)CC(c3cccs3)CC2=O)CC1 (centres undefined)	i	22	?	9	-2	-2.4	-2	2	-19	-32
20	CCCOc1ccccc1C(=O)N1CCNC(=O)C1CC(=O)OC(C)C (centres undefined)	i	2	6.7	-1	-2	-2.4	-3	0	-3	-1.0

Pulled by structure from the list above:
entry	mol	FGF22 binding	Calb FLC	RanGTP-Impb inh	rRNA inh HTS	T cruzi inh	rRNA inh HTS RFP	ALR inh	rRNA inh HTS OD600	Beta apoptosis	MLL AF4-AF9 inh
18	Cc1ccc(-c2cc(C(=O)O)n[nH]2)o1	.	-2	-1.6	.	-8	.	6	.	-8	.
1	Cc1cc(C)cc(CSCC(=O)NN=C2CCCCCC2)c1	.	-6	0.7	.	2	.	7	.	-1	.
20	CCCOc1ccccc1C(=O)N1CCNC(=O)C1CC(=O)OC(C)C (centres undefined)	i	2	6.7	-1	-2	-2.4	-3	0	-3	-1.0
5	Cc1ccc(CN2CCSc3ccc(C(=O)NCc4ccccn4)cc32)cc1	i	?	-0.9	-37	24	-5.3	98*	-49	4	5.2
14	COc1cc(/C=N/NS(=O)(=O)c2ccc(Br)cc2)ccc1O	i	1	0.1	-2	-3	0.7	99*	-9	-9	-6.5

Later entries.
entry	mol	FGF22 binding	Calb FLC	RanGTP-Impb inh	rRNA inh HTS	T cruzi inh	rRNA inh HTS RFP	ALR inh	rRNA inh HTS OD600	Beta apoptosis	MLL AF4-AF9 inh
21	CC(C)Sc1cc(N2CCOCC2)nc(-c2ccccc2)n1	.	-15	?	.	25	.	-8	.	-6	.
22	Cc1ccccc1OCc1nnc(SC(C)C(=O)O)n1Cc1ccccc1 (centres undefined)	i	29	-0.8	-12	-2	-2.6	-2	-16	.	-3.1
23	O=C1CC(NCc2ccncc2)C(=O)N1c1ccc(Cl)cc1 (centres undefined)	.	7	3.8	.	-9	.	17	.	-3	.
24	Cc1ccc(-n2nnc3c(=O)n(CC(=O)c4ccccc4)cnc32)cc1	i	2	2.7	15	-26	1.1	-20	13	-6	-12
25	O=C(Nc1ccccn1)c1ccc(Br)c(S(=O)(=O)N2CCCC2)c1	i	0	-1.6	-10	0	0.0	-19	3	-8	3.2
26	CCC(C)c1ccc(NC(=O)CSc2nncn2N)cc1 (centres undefined)	.	2	-3.1	.	-4	.	-5	.	0	.
27	Cc1cccc(C(=O)c2cccc(C)c2)c1	i	14	1.8	3	-1	7.4	-7	17	-5	-4.0
28	CCOC(=O)c1c(NC(=O)C(C)Sc2nnc(C)c(=O)[nH]2)sc2c1CCCC2 (centres undefined)	i	1	-0.6	-32	-18	-5.5	2	-29	3	-5.1
29	O=C(Nc1ncc2c(n1)CC(c1ccco1)CC2=O)c1ccccc1 (centres undefined)	.	6	-0.3	.	-12	.	8	.	0	.
30	COc1cc(/C=N/NC(=O)c2ccc(N(C)S(=O)(=O)c3ccccc3)cc2)cc(OC)c1OC	.	8	-1.7	.	0	.	-1	.	3	.
31	CCCCCSc1nc2c(cnn2-c2ccc(F)cc2)c(=O)[nH]1	i	1	1.4	7	10	0.1	-7	21	1	-0.4
32	CN1C(=O)c2ccccc2C(O)c2ccccc21 (centres undefined)	i	2	1.1	0	1	-2.2	-20	-2	.	-2.3
33	Cc1ccccc1C(=O)Nc1ccccc1C(=O)N1CCC(C)CC1	i	-13	0.5	5	-4	2.3	.	11	-2	-5.5
34	Cc1cc(=O)oc2cc(OS(C)(=O)=O)ccc12	i	34	-5.6	12	-9	0.3	-4	11	7	0.1
35	COc1ccc(-c2nc(CS(=O)CC(=O)NC(C)CCc3ccccc3)c(C)o2)cc1OC (centres undefined)	i	3	3.1	-6	-5	-1.4	99*	-14	-8	-1.1
36	Cc1cc(C)c(C(=O)/C=C/c2cccc3ccccc23)c(=O)[nH]1	i	12	-2.3	10	21	0.6	0	7	-4	5.8
37	COCCNC(=S)N1CCc2cc(OC)c(OC)cc2C1COc1cc(C)cc(C)c1 (centres undefined)	i	17	-0.4	6	21	-6.8	2	-5	-1	5.0
38	CCN1CCCC1CNC(=O)C(=O)Nc1ccc(OC)cc1 (centres undefined)	i	-3	5.1	11	13	-7.2	2	4	3	-7.1
39	CCC1Oc2ccccc2N(CC(=O)NCCN2C(C)CCCC2C)C1=O (centres undefined)	.	-15	2.5	.	8	.	-7	.	-3	.
40	COc1ccc(-n2c(CSc3nc(C)cc(C)n3)nnc2SCC(=O)Nc2nccs2)cc1	.	2	-5.9	.	9	.	1	.	-3	.
41	CN(c1ccccc1C(=O)Nc1cccc([N+](=O)[O-])c1)S(=O)(=O)c1ccccc1	i	5	-3.5	4	-8	-3.5	1	5	-5	5.0
42	Cn1nc(-c2ccc(Cl)cc2)c2cc(C(=O)NC3CC3)sc21	i	2	2.6	8	-5	3.3	84*	9	6	-18
43	CC(C)(C)OC(=O)C[C@@H]1C/C=C\C[C@@H](CC(=O)NCCO)C(=O)N[C@H](Cc2ccccc2)COC1=O	i	.	.	16	.	1.4	1	27	-1	1.1
44	O=C(O)C1CCN(S(=O)(=O)c2cccc3nonc23)CC1	i	-3	-2.0	23	-23	3.9	0	19	.	3.4
45	COc1c2occc2c(OC(C)=O)c2c(=O)cc(C)oc12	i	13	0.6	1	-2	0.7	-2	-12	-4	-0.7
46	Cc1ccc(SCC(=O)c2cc(C)c(OC(=S)N(C)C)c(C)c2)cc1	.	38	2.5	.	25	.	-1	.	-10	.
47	Cc1cc(=O)n2[nH]c(Nc3cccc(Cl)c3)nc2n1	i	-3	6.2	6	-29	-0.9	-1	-3	2	-3.8
48	COc1ccc(N2CCN(C(=O)NC34CC5CC(CC(C5)C3)C4)CC2)cc1	.	-61	0.1	.	-6	.	85*	.	-8	.
49	Cc1ccc(S(=O)(=O)Nc2nc3ccccc3nc2N2CCc3ccccc3C2)cc1	.	-7	1.0	.	13	.	11	.	6	.
50	Cc1cc(NC(=O)CN2C(=O)NC(C)(c3ccc(Cl)cc3Cl)C2=O)no1 (centres undefined)	i	.	.	1	.	-1.6	2	-17	-2	-1.7

Filtered by structure, the compounds so far with fluorine (two)
entry	mol	FGF22 binding	Calb FLC	RanGTP-Impb inh	rRNA inh HTS	T cruzi inh	rRNA inh HTS RFP	ALR inh	rRNA inh HTS OD600	Beta apoptosis	MLL AF4-AF9 inh
12	Cn1c(SCC(=O)NCCNC(=O)CSc2nnc(C(F)(F)F)n2C)nnc1C(F)(F)F	.	-5	4.4	19	-9	-1.8	-13	17	-2	.
31	CCCCCSc1nc2c(cnn2-c2ccc(F)cc2)c(=O)[nH]1	i	1	1.4	7	10	0.1	-7	21	1	-0.4
